NOMO-1 viab: STK33 inhibitor candidate reducing NOMO-1 cell viability; NOMO-1 AML viability, CellTiter-Glo luminescence, 72 h; inhibition, % (no concentration beside the values); actives 7.5% (n = 37,000); AID 2330;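 active = most replicates above 80%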;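 also: wells of about 30 µL received 25 nL stock; 0% = median of vehicle wells and 100% = reference inhibitor level; the first replicate is given; inactives centre near 10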
An asterisk follows results filed as active.

SMILES	NOMO-1 viab
Cc1noc(C)c1NC(=O)N(C)C[C@@H]1Oc2ccc(NC(=O)C3CCCCC3)cc2C(=O)N([C@H](C)CO)C[C@@H]1C	-12
COc1ccc(NC(=O)N(C)C[C@@H]2Oc3ccc(NC(=O)CCCN(C)C)cc3CC(=O)N([C@H](C)CO)C[C@H]2C)cc1	-17
O=C(NCc1cccnc1)C1CC(c2ccccc2O)=NO1 (stereo unspecified)	9
Cc1ccc(S(=O)(=O)N(C)C[C@H]2OCCCC[C@@H](C)Oc3ccc(NC(=O)Cc4ccccc4)cc3C(=O)N([C@H](C)CO)C[C@@H]2C)cc1	10
C[C@@H]1CN([C@@H](C)CO)C(=O)c2cccc(NC(=O)Nc3ccccc3)c2O[C@H]1CN(C)Cc1ccc2c(c1)OCO2	89*
COc1ccccc1NC(=O)c1ccc(NS(=O)(=O)c2cccc3cccnc23)cc1	-7
O=P1(N2CCN(c3ccc(Cl)cc3)CC2)COc2ccccc2OC1	13
C[C@@H]1CN([C@H](C)CO)C(=O)c2cccc(NC(=O)Nc3ccc(F)cc3)c2O[C@@H]1CN(C)Cc1ccc2c(c1)OCO2	9
COc1ccc(S(=O)(=O)N(C)CC(=O)O)cc1OC	-6
O=C(NCCc1nc2ccccc2[nH]1)c1ccc(-c2ccccc2)cc1	31
NC(=O)CSc1nnc(-c2ccco2)n1-c1ccccc1	-1
C[C@H](CO)N1C[C@H](C)[C@H](CN(C)C(=O)Nc2ccc(F)cc2)Oc2ccc(NC(=O)C3CC3)cc2C1=O	-10
C[C@@H]1CN([C@H](C)CO)C(=O)Cc2cc(NC(=O)Nc3cccc4ccccc34)ccc2O[C@@H]1CN(C)Cc1ccccc1	88*
CNC[C@H]1Oc2ccc(NC(=O)Nc3ccc(C(F)(F)F)cc3)cc2C(=O)N([C@@H](C)CO)C[C@@H]1C	8
C[C@@H]1CN([C@@H](C)CO)C(=O)c2cc(NC(=O)Cc3cn(C)c4ccccc34)ccc2O[C@@H]1CN(C)Cc1ccc(C(=O)Nc2ccccc2N)cc1	99*
O=C1CC(C(=O)Nc2ccc(C(=O)O)c(O)c2)C(c2ccccc2)O1 (stereo unspecified)	8
Cc1cc(C)c(C(=O)c2ccccc2)cc1C(=O)c1ccccc1	26
C[C@@H]1CN([C@@H](C)CO)C(=O)c2cc(NS(C)(=O)=O)ccc2O[C@H]1CN(C)S(=O)(=O)c1ccc(Cl)cc1	5
C[C@H]1CN([C@@H](C)CO)C(=O)Cc2cc(NC(=O)Cc3ccccc3)ccc2O[C@H]1CN(C)C(=O)Nc1ccccc1	22
Cc1noc(C)c1S(=O)(=O)Nc1ccc2c(c1)CC(=O)N([C@H](C)CO)C[C@H](C)[C@H](CN(C)C)O2	-16
C[C@H]1CN([C@@H](C)CO)C(=O)c2cccc(NS(=O)(=O)c3ccc(F)cc3)c2O[C@H]1CN(C)C(=O)Nc1ccc2c(c1)OCO2	-4
CS(=O)(=O)N(CC(=O)Nc1ccc(F)c(F)c1)c1ccccc1Cl	-20
C[C@H](CO)N1C[C@H](C)[C@@H](CN(C)S(C)(=O)=O)Oc2ccc(NS(C)(=O)=O)cc2C1=O	-3
C[C@@H]1CN([C@@H](C)CO)C(=O)c2cc(NC(=O)C3CCCCC3)ccc2O[C@H]1CN(C)C(=O)Nc1ccc(F)cc1	0
C=C1CC[C@H]2[C@@](C)(CCC[C@@]2(C)C(=O)O)[C@@H]1CCC(C)CCO (stereo partly specified)	17

Look-ups from the list.
Reading for C[C@@H]1CN([C@@H](C)CO)C(=O)c2cc(NC(=O)C3CCCCC3)ccc2O[C@H]1CN(C)C(=O)Nc1ccc(F)cc1 in NOMO-1 viab: 0
Reading for C=C1CC[C@H]2[C@@](C)(CCC[C@@]2(C)C(=O)O)[C@@H]1CCC(C)CCO (stereo partly specified) in NOMO-1 viab: 17

Next compounds:
SMILES	NOMO-1 viab
C[C@@H]1CN([C@H](C)CO)C(=O)c2cc(NC(=O)c3ccncc3)ccc2O[C@H]1CN(C)C	-12
Cc1noc(C)c1NC(=O)N(C)C[C@@H]1Oc2ccc(NS(=O)(=O)c3ccc(Cl)cc3)cc2C(=O)N([C@H](C)CO)C[C@H]1C	15
C[C@@H]1CN([C@H](C)CO)C(=O)c2cccc(NC(=O)NC3CCCCC3)c2O[C@H]1CN(C)Cc1ccc(Oc2ccccc2)cc1	114*
Cc1onc(-c2ccccc2Cl)c1NC(=O)Nc1cccc(C(F)(F)F)c1	67
O=C(NCCNc1ccc(C(F)(F)F)cc1[N+](=O)[O-])c1ccc(F)cc1	18
COc1ccc(S(=O)(=O)Nc2ccc3c(c2)C(=O)N([C@@H](C)CO)C[C@@H](C)[C@@H](CN(C)S(=O)(=O)c2ccccc2)O3)cc1	20
C[C@@H]1CN([C@H](C)CO)C(=O)c2cccc(NC(=O)Nc3cccc4ccccc34)c2O[C@H]1CN(C)C(=O)Nc1ccc2c(c1)OCO2	4
Cc1noc(C)c1NC(=O)Nc1ccc2c(c1)CC(=O)N([C@H](C)CO)C[C@@H](C)[C@H](CN(C)S(=O)(=O)c1cccs1)O2	3
C[C@@H]1CN([C@@H](C)CO)C(=O)c2cc(NC(=O)C3CC3)ccc2O[C@H]1CN(C)C(=O)NC1CCCCC1	17
COc1ccc(NC(=O)N(C)C[C@@H]2Oc3c(NS(=O)(=O)c4cn(C)cn4)cccc3C(=O)N([C@@H](C)CO)C[C@@H]2C)cc1	14
COc1cc(OC)nc(/N=C/NO)n1	-1
Cc1cc(Cl)c(S(=O)(=O)N2CCN(c3ccccn3)CC2)cc1OCC(N)=O	11
C[C@@H]1CN([C@H](C)CO)C(=O)c2cc(NC(=O)CCN3CCOCC3)ccc2O[C@H]1CN(C)C(=O)Nc1ccccc1	17
C[C@@H]1CN([C@H](C)CO)C(=O)c2cccc(NC(=O)c3ccc(-c4nccs4)cc3)c2O[C@@H]1CN(C)C(=O)Nc1cccc2ccccc12	13
C[C@@H]1CN([C@H](C)CO)C(=O)c2cc(NC(=O)c3ccncc3)ccc2O[C@@H]1CN(C)S(=O)(=O)c1cccs1	15
CS(=O)(=O)N(CC(=O)Nc1cc(C(F)(F)F)ccc1Cl)c1ccccc1	20
COc1ccc([N+](=O)[O-])cc1NC(=O)COc1ccc(C(C)(C)C)cc1Br	14
Cc1noc(C)c1NC(=O)N(C)C[C@H]1Oc2c(NS(C)(=O)=O)cccc2C(=O)N([C@@H](C)CO)C[C@@H]1C	-2
Cc1cc(C(=O)Nc2ccccc2C(=O)O)ccc1NC(=O)COc1cccc(C)c1C	8
CS(=O)(=O)c1cc2cc(Cl)ccc2oc1=O	7
CC1CC(=O)[C@]2(C)CC[C@]3(C)C(C(=O)C(O)C4[C@@]5(C)CC[C@H](O)C(C)(C(=O)O)C5CC[C@]43C)C2C1C (stereo partly specified)	119*
COc1ccc(S(=O)(=O)Nc2ccc3c(c2)C(=O)N([C@@H](C)CO)C[C@@H](C)[C@H](CN(C)C(=O)Nc2cccc4ccccc24)O3)cc1	10
COc1ccc(OC)c(S(=O)(=O)N2CCC(C(=O)Nc3ccccc3F)CC2)c1	-4
O=C(COc1ccc(Br)cc1)Nc1cccc(-c2nc3ncccc3o2)c1	15
COc1ccc(S(=O)(=O)NCC(=O)Nc2cccc(C)c2C)cc1OC	9

Of the compounds above, these have a nitro group on carbon.
SMILES	NOMO-1 viab
O=C(NCCNc1ccc(C(F)(F)F)cc1[N+](=O)[O-])c1ccc(F)cc1	18
COc1ccc([N+](=O)[O-])cc1NC(=O)COc1ccc(C(C)(C)C)cc1Br	14

The listing picks up, repeating the 6 entries before the break.
SMILES	NOMO-1 viab
CS(=O)(=O)c1cc2cc(Cl)ccc2oc1=O	7
CC1CC(=O)[C@]2(C)CC[C@]3(C)C(C(=O)C(O)C4[C@@]5(C)CC[C@H](O)C(C)(C(=O)O)C5CC[C@]43C)C2C1C (stereo partly specified)	119*
COc1ccc(S(=O)(=O)Nc2ccc3c(c2)C(=O)N([C@@H](C)CO)C[C@@H](C)[C@H](CN(C)C(=O)Nc2cccc4ccccc24)O3)cc1	10
COc1ccc(OC)c(S(=O)(=O)N2CCC(C(=O)Nc3ccccc3F)CC2)c1	-4
O=C(COc1ccc(Br)cc1)Nc1cccc(-c2nc3ncccc3o2)c1	15
COc1ccc(S(=O)(=O)NCC(=O)Nc2cccc(C)c2C)cc1OC	9
COc1cc(S(=O)(=O)NCCN2CCOCC2)ccc1Br	34
CC(C)(C)OC(=O)Cn1ccc(=O)[nH]c1=O	-3
O=[N+]([O-])c1cccc(NC(=S)NCc2cn(-c3ccccc3)nc2-c2ccccc2)c1	97*
Nc1nonc1C(=O)NCCNCc1ccc(F)cc1	-10
C[C@@H]1CCCCO[C@H](CN(C)CC2CC2)[C@@H](C)CN([C@H](C)CO)C(=O)c2cc(NC(=O)Nc3cccc4ccccc34)ccc2O1	13
Cc1ccc(-c2nnc3c4ccccc4c(C)nn23)cc1S(=O)(=O)NC(C)c1ccccc1 (stereo unspecified)	-8
COC(=O)COc1cccc(NC(=O)c2ccccc2F)c1	122*
C[C@@H]1CN([C@H](C)CO)C(=O)c2cccc(NS(C)(=O)=O)c2O[C@H]1CN(C)CC1CC1	-9
COc1ccc(S(=O)(=O)N(C)C[C@@H]2Oc3ccc(NC(=O)CCC(F)(F)F)cc3C(=O)N([C@H](C)CO)C[C@@H]2C)cc1	12
CC(C)NC(=O)N(C)C[C@H]1Oc2c(NC(=O)CCCCCC(=O)Nc3ccccc3N)cccc2C(=O)N([C@@H](C)CO)C[C@@H]1C	1
C[C@H]1CN([C@@H](C)CO)C(=O)c2cc(NC(=O)CCCN(C)C)ccc2O[C@@H]1CN(C)Cc1ccc(Cl)c(Cl)c1	-4
C[C@@H]1CCCCO[C@H](CN(C)Cc2ccc(C(F)(F)F)cc2)[C@@H](C)CN([C@H](C)CO)C(=O)c2cc(NC(=O)NC3CCCCC3)ccc2O1	94*
C[C@H]1CN([C@@H](C)CO)C(=O)c2cccc(NS(=O)(=O)c3ccccc3)c2O[C@@H]1CN(C)C(=O)Nc1ccc(C(F)(F)F)cc1	-9
C[C@H](CO)N1C[C@H](C)[C@H](CN(C)S(=O)(=O)c2cccs2)Oc2ccc(NC(=O)NC3CCCCC3)cc2CC1=O	10
COc1ccc(S(=O)(=O)N(C)C[C@@H]2Oc3ccc(NC(=O)C4CC4)cc3CC(=O)N([C@@H](C)CO)C[C@@H]2C)cc1	-1
O=C(COc1ccc(Cl)cc1)Nc1ccc(O)c(-c2nc3ccccc3o2)c1	98*
O=C(CSCc1cccc2ccccc12)Nc1ccc(C(F)(F)F)cc1	31
C/S(=N\S(=O)(=O)c1ccc(Cl)cc1)c1ccccc1 (stereo unspecified)	-16
C[C@@H]1CN([C@@H](C)CO)C(=O)Cc2cc(NC(=O)Cn3cnnn3)ccc2O[C@@H]1CN(C)CC1CCCCC1	3
O=C(NCc1ccco1)c1cnn2c(C(F)F)cc(C3CC3)nc12	23
COc1cc2oc(-c3ccccc3)cc(=O)c2c(O)c1OC	-3
Cn1nc(-c2ccc(NCCN3CCOCC3)c([N+](=O)[O-])c2)c2ccccc2c1=O	39
CCc1ccc(OCC(=O)Nc2sc3c(c2C(=O)OC)CCC3)c(Br)c1	2
CC1=CCC(C(=O)O)C(C(=O)Nc2ccccc2NC(=O)c2ccc(C(F)(F)F)cc2)C1 (stereo unspecified)	46
Cc1ccc(S(=O)(=O)N(C)C[C@H]2Oc3c(NC(=O)C4CCOCC4)cccc3C(=O)N([C@H](C)CO)C[C@H]2C)cc1	6
The results go on.
SMILES	NOMO-1 viab
CN(C)C(CC(=O)Nc1cccc(Cl)c1Cl)C(=O)O (stereo unspecified)	13
CCc1ccccc1NC(=O)Cn1c(-c2nonc2N)nc2ccccc21	21
C[C@H]1CN([C@@H](C)CO)C(=O)c2cccc(NS(C)(=O)=O)c2O[C@H]1CN(C)Cc1ccc(Cl)c(Cl)c1	12
COc1ccc(S(=O)(=O)N(C)C[C@@H]2Oc3ccc(NC(=O)Nc4ccc(F)cc4)cc3CC(=O)N([C@@H](C)CO)C[C@@H]2C)cc1	56
COC(=O)c1ccc(NC(=O)CSc2nnc(-c3cccnc3)n2-c2ccccc2)cc1	15
O=C(Cn1cnc2scc(-c3ccc(F)cc3)c2c1=O)Nc1ccc(F)cc1	24
C[C@@H]1CN([C@H](C)CO)C(=O)Cc2cc(NC(=O)CCC(F)(F)F)ccc2O[C@@H]1CN(C)Cc1ccccc1	28
C[C@@H]1CN([C@H](C)CO)C(=O)Cc2cc(NS(=O)(=O)c3ccccc3)ccc2O[C@@H]1CN(C)S(=O)(=O)c1ccc(Cl)cc1	4
C[C@@H]1CN([C@@H](C)CO)C(=O)c2cc(NC(=O)Nc3ccc(F)cc3)ccc2O[C@H]1CN(C)S(=O)(=O)c1ccc(F)cc1	30
CC(=O)c1cccc(-n2c(CCC(=O)O)ccc2-c2ccc(Br)cc2)c1	-11
COC(=O)C(=O)CC(=O)c1c(F)c(F)c(OC)c(F)c1F	-15
CCOC(=O)CN=C(c1ccccc1)c1ccccc1	31
O=C(CSc1nc2ccc(N3C(=O)c4ccccc4C3=O)cc2s1)c1ccccc1	-8
CC(C)NC(=O)Nc1ccc2c(c1)C(=O)N([C@@H](C)CO)C[C@@H](C)[C@H](CN(C)S(=O)(=O)c1ccc(Cl)cc1)O2	-5
C[C@H]1CN([C@@H](C)CO)C(=O)c2cccc(NC(=O)NC3CCCCC3)c2O[C@H]1CN(C)CC1CCCCC1	15
C[C@@H]1CCCCO[C@H](CN(C)S(=O)(=O)c2cccs2)[C@@H](C)CN([C@H](C)CO)C(=O)c2cc(NC(=O)Nc3cccc4ccccc34)ccc2O1	11
Cn1c(SCc2nc3ccccc3c(=O)[nH]2)nnc1-c1cc2cc(Br)ccc2o1	-12
C[C@@H]1CN([C@H](C)CO)C(=O)Cc2cc(NC(=O)Cc3ccccc3)ccc2O[C@@H]1CN(C)S(=O)(=O)c1cccs1	12
C[C@H]1CN([C@@H](C)CO)C(=O)Cc2cc(NC(=O)Cc3cn(C)c4ccccc34)ccc2O[C@@H]1CN(C)C(=O)Nc1cccc2ccccc12	14

Screening data as filed in PubChem.

Not all compounds are listed; the hit share may differ from the screen's.
